Vaccinia stage: blocks a specific stage of Vaccinia orthopoxvirus infection, primary screen, cell-based, single point. Vaccinia-infected cells, mCherry/Venus stage reporter fluorescence; stronger effect = lower value; some inactives read as strong as hits. activity change (mCherry), % (concentration not given with the values). hit rate 0.01% among 89,000. AID 1053133, 2014;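 active means mCherry past -33% and 40 or more points under the early reporter, replicates agreeing; inconclusive means past -33% without that gap or agreement; tested in A549 cells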;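 further: scaled between vehicle wells and reference inhibitor wells; 23 nL library stock went into each well; one replicate is shown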
Vaccinia stage Venus: further read-out of Vaccinia stage, marked with its call; activity change (Venus), %; measured here: Venus reporter, other viral stage;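 negative = less Venus signal; first of two replicates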
An asterisk follows results filed as active; ? = inconclusive; . = no result given; & = joins results of further samples.

The line under a structure holds: Vaccinia stage, Vaccinia stage Venus
C[C@@H]1CN([C@H](C)CO)C(=O)c2cc(NS(C)(=O)=O)ccc2O[C@@H]1CN(C)C
  25, 15
O=C(C1CC1)N1CC2(C1)[C@H](c1ccccc1)[C@@H](CO)N2Cc1cncnc1
  8, 1
CCCC#Cc1cnc2c(c1)C(=O)N([C@@H](C)CO)C[C@@H](C)[C@@H](CN(C)C(=O)Nc1ccc(OC)cc1)O2
  5, 1
O=C(C[C@@H]1C[C@H]2c3cc(NC(=O)NC4CCCCC4)ccc3O[C@H]2[C@@H](CO)O1)NCc1cccnc1
  16, 13
OC[C@H]1[C@H](c2ccc(C3=CCCC3)cc2)[C@H]2CN(CCC(F)(F)F)CCCCN21
  -8, -5
Cc1noc(C)c1NC(=O)N(C)C[C@@H]1OCCCC[C@H](C)Oc2ccc(NS(=O)(=O)c3c(C)noc3C)cc2C(=O)N([C@@H](C)CO)C[C@H]1C
  21, 10
COCC(=O)Nc1ccc2c(c1)C(=O)N(C)C[C@H](OC)[C@H](C)CN(CCC(F)(F)F)[C@@H](C)CO2
  -1, 0
CNC[C@@H]1Oc2ccc(NC(=O)CCC(F)(F)F)cc2CC(=O)N([C@H](C)CO)C[C@@H]1C
  -5, -2
COc1cccc(-c2ccc3c(c2)O[C@H](CN(C)C(=O)C2CCOCC2)[C@H](C)CN([C@H](C)CO)S3(=O)=O)c1
  8, 3
CO[C@H]1CN(C)C(=O)c2cc(NC(=O)C3CC3)ccc2OC[C@H](C)N(C(=O)c2ccccc2)C[C@H]1C
  8, 7

Further structures follow:
The line under a structure holds: Vaccinia stage, Vaccinia stage Venus
C[C@@H]1CN([C@H](C)CO)C(=O)c2ccccc2-c2ccccc2CO[C@H]1CN(C)C(=O)c1ccncc1
  10, 5
C[C@H]1CN([C@@H](C)CO)C(=O)c2cc(NC(=O)Nc3ccccc3)ccc2O[C@H]1CN(C)C(=O)Nc1ccccc1
  5, 5
CCC(=O)N1C[C@@H](C)[C@@H](OC)CN(C)C(=O)c2ccc(NC(=O)C3CC3)cc2OC[C@@H]1C
  10, 12
N#C[C@H]1[C@@H](c2ccccc2C2=CCCC2)[C@H](CO)N1C(=O)C1CC1
  -13, -14
C[C@@H]1CCCCO[C@@H](CN(C)S(=O)(=O)c2cn(C)cn2)[C@H](C)CN([C@H](C)CO)C(=O)c2cc(NC(=O)NC3CCCCC3)ccc2O1
  29, 8
COc1ccc(S(=O)(=O)Nc2ccc3c(c2)C(=O)N([C@@H](C)CO)C[C@H](C)[C@@H](CN(C)C(=O)Nc2ccc4c(c2)OCO4)OCCCC[C@H](C)O3)cc1
  -8, -4
C[C@H]1CCCCO[C@H](CN(C)C(=O)Nc2ccc3c(c2)OCO3)[C@@H](C)CN([C@@H](C)CO)C(=O)c2cc(NC(=O)CCCN(C)C)ccc2O1
  3, 3
COc1ccc(S(=O)(=O)N(C)C[C@@H]2OCCCC[C@@H](C)Oc3ccc(NS(=O)(=O)c4cn(C)cn4)cc3C(=O)N([C@H](C)CO)C[C@H]2C)cc1
  12, -2
COc1ccc(NC(=O)Nc2cccc3c2O[C@H](CN(C)S(=O)(=O)c2ccccc2)[C@H](C)CN([C@H](C)CO)C3=O)cc1
  -22, -20
COc1ccccc1C#Cc1cnc2c(c1)C(=O)N([C@H](C)CO)C[C@H](C)[C@@H](CN(C)C(=O)CC1CC1)O2
  18, 6

More compounds follow.
The line under a structure holds: Vaccinia stage, Vaccinia stage Venus
CC(C)NC(=O)N(C)C[C@H]1Oc2c(NC(=O)NC3CCCCC3)cccc2C(=O)N([C@@H](C)CO)C[C@@H]1C
  9, 10
CC(=O)N1[C@@H]2c3ccc(/C=C/c4ccccc4)c(=O)n3C[C@H]1[C@H](CO)[C@H]2C(=O)N(C)C
  -4, 10
CCC(=O)N1[C@@H]2c3ccc(-c4ccccc4)c(=O)n3C[C@H]1[C@H](CO)[C@H]2C(=O)N1CCCCC1
  4, -6
Cc1cccc(CN(C)C[C@@H]2Oc3ncc(/C=C/c4ccccc4)cc3C(=O)N([C@H](C)CO)C[C@@H]2C)c1
  ?, .
Cc1ccccc1-c1ccc2c(c1)O[C@@H](CN(C)Cc1ccncc1)[C@H](C)CN([C@H](C)CO)S2(=O)=O
  ?, .
C[C@@H]1CN([C@H](C)CO)S(=O)(=O)c2ccc(-c3ccc(F)cc3)cc2O[C@@H]1CN(C)C(=O)C1CCCCC1
  ?, .
COc1ccc(NC(=O)N(C)C[C@H]2Oc3ccc(NC(=O)Nc4cccc5ccccc45)cc3C(=O)N([C@@H](C)CO)C[C@@H]2C)cc1
  1, 0
Cc1ccc(CN2CC(=O)N3[C@H](CO)[C@H](c4ccc(-c5ccccc5F)cc4)[C@@H]3C2)cc1
  22, 16
C[C@H]1CN([C@@H](C)CO)C(=O)c2cccc(NC(=O)NC3CCCCC3)c2O[C@@H]1CN(C)Cc1ccncc1
  -3, -3
CCCNC(=O)N1[C@H](C#N)[C@H](c2ccccc2)[C@@H]1CO
  -1, 10

Part of the list above, field by field.
Cc1noc(C)c1NC(=O)N(C)C[C@@H]1OCCCC[C@H](C)Oc2ccc(NS(=O)(=O)c3c(C)noc3C)cc2C(=O)N([C@@H](C)CO)C[C@H]1C
- Vaccinia stage = 21
- Vaccinia stage Venus = 10
COCC(=O)Nc1ccc2c(c1)C(=O)N(C)C[C@H](OC)[C@H](C)CN(CCC(F)(F)F)[C@@H](C)CO2
- Vaccinia stage = -1
- Vaccinia stage Venus = 0
CNC[C@@H]1Oc2ccc(NC(=O)CCC(F)(F)F)cc2CC(=O)N([C@H](C)CO)C[C@@H]1C
- Vaccinia stage = -5
- Vaccinia stage Venus = -2
COc1cccc(-c2ccc3c(c2)O[C@H](CN(C)C(=O)C2CCOCC2)[C@H](C)CN([C@H](C)CO)S3(=O)=O)c1
- Vaccinia stage = 8
- Vaccinia stage Venus = 3

Additional results follow:
The line under a structure holds: Vaccinia stage, Vaccinia stage Venus
O=C(NC1CCCC1)N1CC(=O)N2[C@H](CO)[C@@H](c3ccc(-c4ccncc4)cc3)[C@H]2C1
  9, 12
CCC(=O)N[C@@H]1CC[C@H](CCn2cc(-c3cccc(OC)c3)nn2)O[C@H]1CO
  -2, -1
COc1ccc(NC(=O)N(C)C[C@@H]2Oc3ccc(NS(C)(=O)=O)cc3C(=O)N([C@H](C)CO)C[C@H]2C)cc1
  4, 3
C[C@@H]1CN([C@H](C)CO)C(=O)Cc2cc(NC(=O)Cc3cn(C)c4ccccc34)ccc2O[C@H]1CN(C)CC1CCCCC1
  ?, .
COc1ccc(S(=O)(=O)Nc2ccc3c(c2)CC(=O)N([C@H](C)CO)C[C@@H](C)[C@@H](CN(C)C(=O)Nc2ccc(C(F)(F)F)cc2)O3)cc1
  8, 25
CCC(=O)Nc1ccc2c(c1)C(=O)N(C)C[C@@H](OC)[C@H](C)CN(C(=O)c1ccc(F)cc1)[C@@H](C)CO2
  2, 0
C[C@H](CO)N1C[C@H](C)[C@H](CN(C)CC2CCOCC2)Oc2cc(C#Cc3cccnc3)ccc2S1(=O)=O
  3, 7
C[C@@H]1CCCCO[C@H](CN(C)C(=O)NC2CCCCC2)[C@H](C)CN([C@@H](C)CO)C(=O)c2cc(NC(=O)Nc3ccccc3)ccc2O1
  -8, -2
CO[C@H]1CN(C)C(=O)c2ccc(NC(=O)c3ccc4c(c3)OCO4)cc2OC[C@@H](C)N(CC2CC2)C[C@@H]1C
  6, 5
COc1cccc(S(=O)(=O)N(C)C[C@H]2Oc3ncc(Br)cc3C(=O)N([C@H](C)CO)C[C@H]2C)c1
  -8, -6

The list goes on:
The line under a structure holds: Vaccinia stage, Vaccinia stage Venus
C/C=C/c1cnc2c(c1)C(=O)N([C@@H](C)CO)C[C@H](C)[C@@H](CN(C)C(=O)NC1CCCCC1)O2
  9, 9
CC(C)NC(=O)N[C@@H]1CC[C@@H](CCNS(=O)(=O)Cc2ccccc2)O[C@@H]1CO
  -3, 3
CCCNC(=O)Cc1ccc(N)cc1
  10, 5
C[C@@H]1CN([C@H](C)CO)S(=O)(=O)c2ccc(-c3cccc(C#N)c3)cc2O[C@H]1CN(C)C(=O)Nc1cc(F)ccc1F
  -1&-5, -5&0
N#C[C@H]1[C@H](c2ccc(C#CC3CCCC3)cc2)[C@H](CO)N1S(=O)(=O)c1ccccc1
  2, -1
Cc1cc(C(=O)Nc2cccc3c2O[C@@H](CN(C)C(=O)Nc2ccc4c(c2)OCO4)[C@H](C)CN([C@H](C)CO)C3=O)n(C)n1
  37, 28
C[C@H](O)C#Cc1cnc2c(c1)C(=O)N([C@H](C)CO)C[C@@H](C)[C@H](CN(C)C(=O)c1ccccc1F)O2
  2, -4
C[C@H](CO)N1C[C@H](C)[C@H](CN(C)C(=O)Nc2ccc(F)cc2)Oc2c(NC(=O)c3nc4ccccc4s3)cccc2C1=O
  ?, .
COc1cccc(-c2cnc3c(c2)C(=O)N([C@H](C)CO)C[C@H](C)[C@@H](CN(C)C(=O)Nc2ccccc2F)O3)c1
  3, 2
C[C@H]1CN([C@@H](C)CO)C(=O)Cc2cc(NC(=O)Nc3ccc4c(c3)OCO4)ccc2O[C@H]1CN(C)C
  -4, -3

New compounds follow:
The line under a structure holds: Vaccinia stage, Vaccinia stage Venus
COc1cccc(S(=O)(=O)N[C@@H]2CC[C@H](CCNC(=O)Nc3cc(F)ccc3F)O[C@H]2CO)c1
  -12, 0
C[C@H](CO)N1C[C@H](C)[C@@H](CN(C)Cc2ccc(C(=O)Nc3ccccc3N)cc2)Oc2ccc(NC(=O)NC3CCCCC3)cc2CC1=O
  10, 7
COc1ccc(NC(=O)Nc2ccc3c(c2)CC(=O)N([C@H](C)CO)C[C@H](C)[C@@H](CN(C)S(=O)(=O)c2ccc(C)cc2)O3)cc1
  -17, -13
CC(C)NC(=O)N(C)C[C@@H]1Oc2ncc(C#Cc3ccc(F)cc3)cc2C(=O)N([C@@H](C)CO)C[C@@H]1C
  2, 7
CO[C@H]1CN(C)C(=O)c2cc(NC(=O)Nc3cccc(F)c3)ccc2OC[C@@H](C)N(C(C)=O)C[C@H]1C
  1, 8
COc1cccc(C(=O)Nc2ccc3c(c2)OC[C@@H](C)N(C(=O)C2CCOCC2)C[C@@H](C)[C@H](OC)CN(C)C3=O)c1
  6, 11
CO[C@@H]1CN(C)C(=O)c2cc(NC(C)=O)ccc2OC[C@H](C)N(C(=O)c2ccccn2)C[C@H]1C
  -1, 4
Cc1ccc(-c2cnc3c(c2)C(=O)N([C@H](C)CO)C[C@H](C)[C@@H](CN(C)C(=O)c2cccnc2)O3)cc1
  13, 10
COc1ccc(NC(=O)Nc2ccc3c(c2)[C@@H]2C[C@@H](CC(=O)NCc4ccccc4F)O[C@@H](CO)[C@@H]2O3)cc1
  20, 15
C[C@@H]1CN([C@@H](C)CO)C(=O)c2cc(NS(C)(=O)=O)ccc2O[C@H]1CN(C)Cc1ccc(C(=O)O)cc1
  7, 3

Going on with the list.
The line under a structure holds: Vaccinia stage, Vaccinia stage Venus
COCCNC(=O)C[C@H]1CC[C@H]2[C@@H](COC[C@@H](O)CN2Cc2ccc(Cl)c(Cl)c2)O1
  8, 1
C[C@@H]1CN([C@H](C)CO)S(=O)(=O)c2ccc(C#Cc3ccccn3)cc2O[C@H]1CN(C)C
  2, 4
C[C@@H]1CCCCO[C@@H](CN(C)S(=O)(=O)c2ccccc2)[C@@H](C)CN([C@@H](C)CO)C(=O)c2cc(NS(=O)(=O)c3ccc(Cl)cc3)ccc2O1
  0, -6
C[C@H](CO)N1C[C@H](C)[C@H](CN(C)CC2CCCCC2)Oc2ccc(NS(=O)(=O)c3ccc(F)cc3)cc2CC1=O
  -18, -15
O=C(CCN1CCCCC1)N[C@@H]1CC[C@H](CCn2cc(-c3ccccc3)nn2)O[C@H]1CO
  1, 5
CCCN(C)C[C@H]1OCCCC[C@@H](C)Oc2ccc(NC(=O)Nc3ccc4c(c3)OCO4)cc2C(=O)N([C@H](C)CO)C[C@@H]1C
  0, 4
CC(C)NC(=O)N(C)C[C@@H]1Oc2ccc(NC(=O)CCCN(C)C)cc2CC(=O)N([C@@H](C)CO)C[C@H]1C
  -2, 12
CCCNC(=O)C[C@@H]1CC[C@H]2[C@@H](COC[C@@H](O)CN2Cc2ccccc2F)O1
  8, 1
C[C@H](CO)N1C[C@H](C)[C@H](CN(C)C(=O)Nc2cccc3ccccc23)Oc2ncc(C#Cc3ccc(F)cc3)cc2C1=O
  ?, .
COc1ccc(S(=O)(=O)Nc2cccc3c2O[C@@H](CN(C)CC2CC2)[C@@H](C)CN([C@H](C)CO)C3=O)cc1
  -6, -3

More compounds follow.
The line under a structure holds: Vaccinia stage, Vaccinia stage Venus
COc1ccc(S(=O)(=O)Nc2cccc3c2O[C@@H](CN(C)C(=O)Nc2ccccc2)[C@H](C)CN([C@H](C)CO)C3=O)cc1
  -7, -4
CO[C@H]1CN(C)C(=O)c2cc(NC(C)=O)ccc2OC[C@H](C)N(C(=O)c2ccccc2)C[C@@H]1C
  -10, -8
O=C(C[C@H]1C[C@@H]2c3cc(NC(=O)Nc4ccccc4F)ccc3O[C@@H]2[C@H](CO)O1)NCc1cc(F)ccc1F
  0, 1
C[C@@H]1CCCCO[C@@H](CN(C)Cc2ccccc2)[C@H](C)CN([C@@H](C)CO)C(=O)c2cc(NS(=O)(=O)c3cccs3)ccc2O1
  -35, -26
COCC(=O)Nc1ccc2c(c1)C(=O)N(C)C[C@H](OC)[C@H](C)CN(C(=O)Cc1cccnc1)[C@H](C)CO2
  12, 8
COC(=O)C[C@@H]1C[C@@H]2c3cc(NS(=O)(=O)c4cccc(OC)c4)ccc3O[C@@H]2[C@H](CO)O1
  13, 13
CCC(=O)N(CC)C[C@@H]1[C@@H](c2ccccc2)[C@H](CO)N1C(=O)C1CCC1
  9, 13
Cc1ccc(S(=O)(=O)Nc2ccc3c(c2)CC(=O)N([C@@H](C)CO)C[C@@H](C)[C@@H](CN(C)Cc2ccc4c(c2)OCO4)O3)cc1
  -16, -6
Cc1ccccc1-c1cnc2c(c1)C(=O)N([C@H](C)CO)C[C@@H](C)[C@H](CN(C)CC1CCOCC1)O2
  2, -3

Some of the compounds tested (hit frequency here may not be typical).
